MLL AF4-AF9 inh: blocks AF4 peptide binding to human AF9; AlphaScreen, biotin-AF4 peptide binding to FLAG-AF9; inhibition, % at 10 µM; hit rate 0.47% among 350,000;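 active = every replicate reaching a set inhibition limit, whatever the replicate mean, cut at about 25% in these data; inconclusive = mean inhibition reaches that limit but some replicates miss it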;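 also: 0% = plate neutral control median and 100% = total signal loss; the record names both 10 and 1 µM as test concentration; the first replicate is given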
Target sequence (P42568 whole entry, looked up): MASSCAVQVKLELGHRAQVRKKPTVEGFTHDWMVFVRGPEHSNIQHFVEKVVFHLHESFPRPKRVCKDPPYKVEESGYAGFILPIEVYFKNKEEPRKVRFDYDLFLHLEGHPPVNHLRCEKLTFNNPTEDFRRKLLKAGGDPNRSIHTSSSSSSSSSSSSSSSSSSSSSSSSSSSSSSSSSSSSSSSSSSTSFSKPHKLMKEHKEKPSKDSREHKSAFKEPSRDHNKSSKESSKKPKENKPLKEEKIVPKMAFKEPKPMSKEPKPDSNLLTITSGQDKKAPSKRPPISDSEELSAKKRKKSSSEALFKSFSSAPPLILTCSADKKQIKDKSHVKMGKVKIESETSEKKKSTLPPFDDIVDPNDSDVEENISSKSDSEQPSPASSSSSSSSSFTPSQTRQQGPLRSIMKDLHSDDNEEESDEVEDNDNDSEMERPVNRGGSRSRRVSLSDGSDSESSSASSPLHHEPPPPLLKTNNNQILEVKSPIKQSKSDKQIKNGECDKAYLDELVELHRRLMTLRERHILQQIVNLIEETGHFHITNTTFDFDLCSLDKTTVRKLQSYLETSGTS
Beta apoptosis: blocks beta cell apoptosis; INS-1E cytokine-induced death, ATP luminescence, 48 h; percent of positive-control rescue, neutral wells zero; protection from apoptosis, % (no concentration beside the values); hit rate 0.8% among 300,000;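 active = all replicates at 75% or more, or half of them and the mean; inconclusive = half reach 75% but not the mean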;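 also: 0% = cytokine-treated negative control wells and 100% = positive control rescue; higher means more ATP so stronger rescue from cytokine killing; wells of about 40 µL received 100 nL stock; the first replicate is given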
Ecoli rRNA inh: inhibitors of bacterial rRNA selective over humanized ribosomes; E. coli WT GFP vs humanized-ribosome RFP mutants, fluorescence, 24 h; stronger effect = lower value; DMSO median 0, no signal -100; GFP signal change (wild-type ribosome), % (test concentration not listed); hit rate 1.6% among 350,000;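 active = significant combined selectivity score with lowered wild-type GFP, culture density cut under 30%, mutant RFP and density less affected; inactive = any of these conditions unmet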; also: one replicate is shown; some compounds called inactive have numbers as strong as hits
Bfl-1 A1 inh: inhibitors of the anti-apoptotic protein A1, read as caspase activation; MEF A1-2A-BIM cells, Caspase-Glo 3/7 luminescence, 3 h; percent of clofoctol response, vehicle zero; caspase activation, % (no concentration beside the values); hit rate 0.066% among 330,000; AID 2462;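 active = over half of replicate activation scores above 10%, or exactly half above 10 with the replicate mean above 10; inconclusive = replicate mean below 10 yet half the replicates above 10; inactive = over half of replicates below 10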;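 also: wells of about 30 µL received 50 nL stock; many hits fall short of the cut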
RanGTP-Imp inh: disruptors of Ran-importin-beta complex formation – biochemical, FRET, CFP-Ran, YFP-importin-beta, homogeneous, primary screen; cell-free CFP-Ran/YFP-importin-beta FRET ratio; inhibition, % (concentration not given with the values); hit rate 1.1% among 300,000; AID 2216;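 active = most replicates above 15%; inconclusive = exactly half above 15%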;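 also: 0% = DMSO wells and 100% = Ran loaded with GDP instead of GTP; wells of about 40 µL received 100 nL stock; the first replicate is given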
Calb FLC: C. albicans growth modulation with fluconazole | AID 1979 | growth inhibition, % (no concentration beside the values) | C. albicans CaCi-2 (fluconazole-resistant clinical isolate) + fluconazole, Alamar Blue growth, 48 h | hit rate 0.57% among 300,000;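 active = most replicates above 75%; inconclusive = exactly half above 75%; inactive = most below 75%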;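 also: all wells also contain fluconazole at 8 µg/ml as a sub-toxic cotreatment; 0% = median of DMSO wells and 100% = median of geldanamycin control wells; wells of about 8 µL received 7.5 nL stock; the first replicate is given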
T cruzi inh: blocks replication of Trypanosoma cruzi | T. cruzi beta-gal in NIH3T3, luminescence, 90 h | inhibition, % (concentration not given with the values) | hit rate 1.4% among 300,000 | AID 1885;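 active = mean inhibition across valid replicates above about 55%, limit read from the data; inconclusive = mean below that limit but half or more replicates reach it; inactive = mean below it, under half of replicates reach it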;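 also: signal also drops with host cell toxicity which is not excluded here; 0% = plate median of DMSO wells and 100% = zero luminescence signal; higher percent means less beta-gal luminescence so fewer parasites; stock transfer was 50 nL into about 50 µL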
Vif A3G: HIV-1 Vif–A3G interaction blockers – biochemical, TR-FRET, GST-Vif 1-94, biotin-A3G peptide, dose response retest, primary screen (AID 1117319); hit rate 0.57% among 260,000; inhibition, %; hits with a dose series show IC50 in µM; TR-FRET GST-Vif / biotin-A3G peptide binding; higher % means a stronger effect; test concentration not given here; strong numbers were not always called active;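 active = above the screen mean plus three standard deviations and confirmed in dose response; inconclusive = results disagree or hit not tested in dose response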;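 also: Vif residues 1-94 fused to GST binding biotinylated APOBEC3G peptide 110-148; 0% = full assay without inhibitor and 100% = GST in place of GST-Vif; retest series ran down from 100 µM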
Ecoli rRNA inh OD600: further read-out of Ecoli rRNA inh, marked with its call; OD600 change, %; measured here: OD600 growth;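 optical density of the mix in the first replicate; 0 = DMSO median and -100 = no signal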
Ecoli rRNA inh RFP: second read-out of Ecoli rRNA inh, no call of its own (marks repeat the call); RFP signal change, %; measured here: RFP humanized mutant strains;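 first replicate; 0 = DMSO median and -100 = no signal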
* hit, by the source's call; ? = inconclusive; · = no result given.

SMILES | MLL AF4-AF9 inh | Beta apoptosis | Ecoli rRNA inh | Ecoli rRNA inh OD600 | Ecoli rRNA inh RFP | Bfl-1 A1 inh | RanGTP-Imp inh | Calb FLC | T cruzi inh | Vif A3G
COc1ccc(NS(=O)(=O)c2ccc(NC(=S)NCC3CCCO3)cc2)cc1 (centres undefined) | -6.9 | -2 | -6 | -15 | 0.6 | -0.3 | 0.9 | 3 | -2 | ·
COc1ccccc1Cn1cccc1C=O | -2.6 | -6 | 7 | 5 | -3.5 | 0.8 | 5.8 | -10 | -26 | -5%
COC(=O)c1c(NC(=O)C2CCC2)sc(C(=O)N(C)C)c1C | · | 2 | · | · | · | 0.5 | -0.3 | 22 | -14 | 4%
COCCCn1c(SCC(=O)Nc2ccc(C(=O)OC)cc2)nc2ccccc2c1=O | · | 2 | · | · | · | -0.3 | -2.0 | -26 | 15 | 7%
O=C(NC1=NCCS1)C1CCN(S(=O)(=O)c2ccc(Cl)cc2)CC1 | 0.7 | -21 | 10 | 11 | -1.4 | 0.1 | · | · | · | -1%
CCc1noc(C)c1C(=O)OC(C)C(=O)Nc1ccc2c(c1)OCO2 (centres undefined) | -1.4 | 1 | 1 | 2 | -1.9 | -0.4 | · | · | · | 3%
Cc1cccc(S(=O)(=O)N/N=c2\sc3ccccc3n2C)c1 | -0.6 | -5 | 9 | 10 | 3.0 | -0.8 | -0.3 | 3 | -17 | 28%
CCN1CCc2c(sc(NC(=O)c3ccc(C(=O)c4ccccc4)cc3)c2C(N)=O)C1 | 1.6 | -19 | -26 | -22 | -0.5 | 0.9 | 8.9 | 4 | 11 | -3%
Cc1cccc(NC(=O)COC(=O)c2ccc3c(c2)OCO3)c1C | -1.3 | 11 | 19 | 17 | -0.8 | 0.4 | 1.8 | 5 | -3 | -19%
COc1ccccc1-n1c(-c2cccnc2)n[nH]c1=S | · | -2 | 12 | 15 | 0.2 | 0.8 | 0.3 | -1 | 20 | 4%
Cc1nn(-c2ccccc2)c(C)c1NS(=O)(=O)c1ccccc1 | · | 4 | · | · | · | 0.5 | -2.2 | 6 | 13 | 27%
Cc1ccc(Cl)c2c1=NC(=O)C=2c1[nH]c(=S)[nH]c1O | 0.3 | 8 | 17 | 15 | 0.3 | -0.5 | -1.6 | 22 | -8 | 6%
Fc1ccccc1-c1cc2ccccc2cn1 | -3.9 | -4 | 8 | 12 | -2.1 | -6.9 | · | · | · | ·
O=C(CCSCc1ccccc1F)NCCc1ccccc1 | -0.7 | -5 | -14 | -15 | -2.2 | 0.0 | 1.5 | 9 | 21 | 2%
N#Cc1c(N)n(CCOC(=O)c2cccc([N+](=O)[O-])c2)c2nc3ccccc3nc12 | · | -4 | · | · | · | 1.5 | 4.3 | -12 | 0 | 2%
Cc1ccc(NC(=O)CSCC(=O)Nc2ccc(S(=O)(=O)N3CCOCC3)cc2)cc1 | 0.3 | 3 | -2 | -6 | -2.3 | 0.4 | 1.9 | 7 | 9 | ·
CCOc1ccc(C(=O)NC2CCN(S(=O)(=O)CC)CC2)cc1 | · | 7 | · | · | · | 0.7 | 7.1 | -3 | -6 | 77%
Cc1cc([N+](=O)[O-])ccc1NCc1ccc2c(c1)OCCO2 | 4.6 | 0 | -16 | -9 | -8.5 | -1.1 | ? | 37 | -3 | -8%
CCC1CCCCN1CCCNC(=O)C1CCC(CNS(=O)(=O)c2c(C)cc(C)cc2C)CC1 (centres undefined) | 6.3 | -3 | 1 | 1 | 0.8 | 0.8 | 1.7 | 18 | 36 | ·
CCOc1ccc(OCc2nnc(SCC(=O)NC3CCS(=O)(=O)C3)n2-c2ccc(Cl)cc2)cc1 (centres undefined) | -5.2 | -9 | -18 | -12 | -1.4 | 0.4 | 0.4 | 5 | 3 | ?
COCC(C)NS(=O)(=O)c1ccccc1 (centres undefined) | -0.1 | · | 12 | 18 | -0.9 | -0.7 | 7.9 | -2 | -9 | ·
Cn1c(CCC(N)=O)nnc1SCC(=O)Nc1ccccc1C(=O)NC1CC1 | 1.1 | -10 | 11 | 21 | 0.9 | -0.8 | · | · | · | 3%
Cc1cc(C)c(S(=O)(=O)N2CCCC(C(=O)NCc3ccccn3)C2)c(C)c1 (centres undefined) | -0.6 | -2 | 1 | -6 | 3.0 | 0.8 | -5.4 | 2 | 4 | ·
Cc1cc(C)c(NC(=O)CSc2nc3[nH]ncc3c(=O)[nH]2)c(C)c1 | -0.1 | 0 | 6 | 22 | 1.6 | -0.5 | 2.5 | -5 | -4 | -4%
CCN(CC(=O)NCc1cccs1)C(=O)C1CC(=O)N(c2ccc(OC)cc2OC)C1 (centres undefined) | 1.3 | · | 8 | 6 | 1.4 | 1.4 | 0.4 | -9 | 0 | -1%
COCCCn1c(=O)c2sccc2n2c(CCCC(=O)N3CCN(c4ccccn4)CC3)nnc12 | 1.5 | 1 | 11 | 11 | 1.9 | 0.1 | 3.4 | 17 | -5 | ·
Cc1ccc(-c2nnc(Nc3ccc(C(=O)N(C)C)cc3)c3ccccc23)cc1S(N)(=O)=O | -0.9 | -3 | -13 | -18 | -0.4 | 1.5 | -1.7 | 7 | 0 | -9%
O=C1/C(=C/c2ccc(O)c(O)c2)SC(=S)N1Nc1ccccc1 | · | · | · | · | · | · | -3.2 | 114* | -29 | 4%
Cc1ccc(OCCNS(=O)(=O)c2cccs2)cc1 | · | -3 | · | · | · | -0.2 | 4.3 | 1 | 2 | 0%
O=[N+]([O-])c1ccc(-c2c(-c3ccccc3)ncc3cc(F)ccc23)cc1 | 11 | 15 | -18 | -20 | -19 | -1.0 | · | · | · | ·
c1ccc(Cn2nnnc2CN2CCCC2)cc1 | · | -6 | · | · | · | -0.4 | 4.0 | 0 | -23 | 6%
COc1ccc(C=NNC(=O)c2cc(C)oc2C)cc1O | -1.1 | 4 | 1 | 6 | -1.2 | -12 | · | · | · | 3%
COc1ccc(CC(=O)Nc2ccc(-c3nnc(-c4ccc(C)cc4)o3)cc2)cc1 | · | 22 | · | · | · | 0.7 | 4.2 | ? | 12 | 5%
CN(C)CCn1c(=S)[nH]c2ccc(Cl)cc2c1=O | -2.3 | -4 | 5 | 0 | 2.0 | -0.5 | 5.2 | 11 | 9 | 27%
COC(=O)N/N=C/c1cc(Cl)cc(Cl)c1OCc1ccccc1 | · | 5 | · | · | · | 0.1 | -3.0 | -14 | 20 | 4%
COc1ccc(C(=O)Nc2cccc(C)c2)cc1S(=O)(=O)N1CCOCC1 | · | · | · | · | · | -0.4 | -0.3 | 1 | -3 | -2%
O=C(Nc1ccccc1)c1ccc(Cn2cc(C(F)(F)F)ccc2=O)cc1 | · | 6 | · | · | · | 1.3 | 0.1 | 23 | -7 | -2%
COc1cc(C2N(Cc3ccccc3)CCN2Cc2ccccc2)ccc1OC(C)=O | 3.5 | -1 | -4 | 4 | -3.1 | 1.3 | 1.7 | 3 | 15 | ·
Cc1ccc(NC2=NCC(=O)N2Cc2ccccc2)c(C)c1 | · | -2 | · | · | · | ? | 6.2 | -8 | 2 | 0%
CC(C)(C)c1ccc(S(=O)(=O)NCC(=O)Nc2sc3c(c2C(N)=O)CCCC3)cc1 | · | -3 | · | · | · | 0.3 | -2.2 | 2 | · | 6%
O=C(COC(=O)CN1C(=O)c2ccccc2C1=O)Nc1ncc(Cl)cc1Cl | · | -4 | · | · | · | -4.6 | 1.0 | -5 | -6 | -11%
COc1ccccc1N1CCN(C2CCCN(C(=O)CCc3cnccn3)C2)CC1 (centres undefined) | -0.1 | -5 | 14 | 12 | 0.6 | 0.0 | -2.6 | 0 | 10 | ·
COc1ccc(Nc2ncnc3scc(-c4ccc(OC)cc4)c23)cc1 | -13 | -2 | -12 | -22 | -9.9 | -0.2 | -0.1 | 2 | 14 | -22%
COC(=O)NNC(=O)c1ccc(C)cc1 | · | -6 | · | · | · | -0.3 | 3.3 | -5 | -11 | ?
CC(C)(C)NC(=O)C(c1ccco1)N(C(=O)c1csnn1)c1ccccc1 (centres undefined) | · | -1 | · | · | · | 0.3 | ? | -14 | -18 | ?
COc1cc(C2Nc3ccc4ncccc4c3C3=C2C(=O)CC(C)(C)C3)cc(OC)c1O (centres undefined) | · | -8 | · | · | · | 0.3 | -7.5 | 12 | 10 | 22%
CSc1nc(N)c2c(n1)OC(N)=C(C#N)C2c1cccnc1 (centres undefined) | -1.2 | -9 | 7 | 9 | 1.5 | 0.3 | 105* | -7 | -4 | 1%
COc1ccc(C=Nc2cccc3ncccc23)cc1 | 2.9 | -2 | 1 | -6 | 9.4 | -0.4 | -0.6 | 4 | -7 | ·
CC(C)OC(=O)C(=O)NNc1ccccc1 | -4.0 | -3 | 28 | 22 | 5.6 | -0.3 | -5.9 | 129* | 58* | ·
COc1ccccc1NC(=O)C1CCN(S(=O)(=O)c2cccs2)CC1 | -1.7 | -7 | 16 | 12 | -0.9 | 1.4 | · | · | · | 7%
O=C(CN(C(=O)c1csnn1)c1ccc(Cl)cc1)NC1CCCC1 | -0.9 | -3 | · | · | · | -0.3 | 0.5 | -5 | 12 | -4%
CCc1nnc(NC(=O)C2CC(=O)N(C3CCCCC3)C2)s1 (centres undefined) | -1.0 | · | 0 | -6 | 2.3 | 1.1 | 5.2 | -1 | -15 | ·
Cn1ccc(NC(=O)Nc2ccc(Cl)cc2Cl)n1 | 1.0 | -4 | 7 | 1 | -4.8 | 1.2 | 6.7 | 21 | -6 | -7%
COc1ccc(-c2nc(C#N)c(NCc3ccc(F)cc3)o2)cc1OC | · | 21 | · | · | · | 1.7 | 3.2 | 12 | -10 | -5%
C=CCN1C(=O)C(O)(CC(=O)c2ccccc2)c2ccccc21 (centres undefined) | · | -6 | · | · | · | 0.0 | 1.5 | -1 | 3 | 0%
COc1ccc2c(c1)c(C(=O)O)c(C)n2CCc1ccc(OC)c(OC)c1 | 4.7 | 2 | -16 | -4 | 34 | 1.0 | -3.7 | 10 | 4 | -1%
O=C(O)c1ccc(-c2nnc(-c3ccc([N+](=O)[O-])cc3)o2)cc1 | -4.3 | -1 | 9 | 8 | -0.8 | -1.3 | -6.3 | 7 | 0 | ·
O=C(CN1C(=O)NC(CCc2ccccc2)C1=O)N1CCCCCC1 (centres undefined) | -2.5 | 2 | -2 | -8 | -6.0 | 0.0 | · | · | · | ·
O=C1NCCN(Cc2ccc(F)cc2)C1CC(=O)N1CC=C(c2ccccc2)CC1 (centres undefined) | 0.9 | -12 | 6 | 3 | -1.2 | -0.5 | 6.3 | -3 | -2 | ·
O=C(Cc1c[nH]c2ccccc12)Nc1cccc(S(=O)(=O)N2CCCCC2)c1 | · | 0 | · | · | · | 0.2 | -0.8 | 0 | 0 | 0%
CC(=O)N1N=C(c2ccc(C)cc2)OC1c1ccc(Br)cc1 (centres undefined) | -5.6 | · | -51 | -71 | -4.8 | -0.3 | ? | -1 | 2 | 1%

Only part of the results is shown (hit frequency here may not be typical).
